Compound activity deposited in PubChem by National Center for Advancing Translational Sciences (NCATS).
miR-21 reporter: raises the signal of a miR-21 reporter | Potency, µM (series often up to 38.3 µM), for the others: at the top dose reporter change, positive = more light | 340,000 tested, under 10 active | HeLa miR-21 FLuc reporter, luciferase, 48 h | AID 2288; active = well fitted rising curve with a large enough effect; inconclusive = small, poorly fitted or top-dose-only effect; inactive = no such curve, though single readings can be large or run the other way;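 note: % of control where 0% means no effect; miR-21 action dims this reporter so a rising signal means less miR-21 action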
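HeLa cells endogenously expressing miR-21, stably carrying CMV-driven firefly luciferase with a downstream miR-21 binding site, 2000 cells/well. Titrations up to approximately 40 uM, 48 hours; luciferase luminescence read.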
Rango dissoc inh: inhibition of RanGTP-driven Rango-importin beta dissociation | Biochemical FRET Rango-importin beta, RanGTP-induced dissociation | Potency, µM (highest dose often 46.1 µM), without a hit: at the highest dose activity change, negative = inhibition | hit rate 0.071% among 340,000 | AID 540253; active means falling FRET ratio curve, often poorly fitted, with flat reads before Ran was added; inconclusive means other falling curves, or compound fluorescence or quenching; inactive means flat or rising ratio curve;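 note: potency is the fitted concentration of half-maximal effect; % of control where 0% means no effect; nearly all actives have a fitted effect of over 45% in size; -100% = wells without RanGTP and RCC1; the record marks most hits as doubtful in a second field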
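FRET read at 45 min, room temperature: inhibitors block the CFP/YFP signal rise when RanGTP (0.6 uM Ran, 2 mM GTP, 0.2 uM RCC1) frees Rango (0.1 uM) from importin beta (0.25 uM). Pre-read after 5 min compound exposure flags interference.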
GLA inh pH 4.5: blocks human alpha-galactosidase A at pH 4.5. purified enzyme, 4-MU-alpha-Gal fluorescence, pH 4.5. AID 1467. P06280. activity change, negative = inhibition, % at 105 µM. 230,000 tested, under 10 active; inconclusive = small, poorly fitted or top-dose-only inhibition, or a rising curve; inactive = flat fitted curve, though single readings scatter; no compound was filed as active;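 note: 0% = full activity with enzyme and -100% = basal without enzyme; dose as in the result columns while the protocol names 77 µM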
Rango-impB inh: inhibitors of Rango-importin beta complex formation; AID 540263; hit rate 0.031% among 340,000; Rango CFP/YFP FRET sensor + importin beta, 45 min; Q14974; Potency, µM (top dose mostly 92.2 µM), for inactives: at the highest dose inhibition of complex formation; active = rising FRET ratio curve, often small or poorly fitted; inconclusive = mostly compound fluorescence or quenching in the first reads; inactive = flat curves in all reads;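 note: potency is the fitted concentration of half-maximal effect; 0% = DMSO wells and 100% = buffer wells lacking importin beta; nearly all actives have a fitted effect of over 15% in size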
Target sequence (Q14974 whole entry, looked up): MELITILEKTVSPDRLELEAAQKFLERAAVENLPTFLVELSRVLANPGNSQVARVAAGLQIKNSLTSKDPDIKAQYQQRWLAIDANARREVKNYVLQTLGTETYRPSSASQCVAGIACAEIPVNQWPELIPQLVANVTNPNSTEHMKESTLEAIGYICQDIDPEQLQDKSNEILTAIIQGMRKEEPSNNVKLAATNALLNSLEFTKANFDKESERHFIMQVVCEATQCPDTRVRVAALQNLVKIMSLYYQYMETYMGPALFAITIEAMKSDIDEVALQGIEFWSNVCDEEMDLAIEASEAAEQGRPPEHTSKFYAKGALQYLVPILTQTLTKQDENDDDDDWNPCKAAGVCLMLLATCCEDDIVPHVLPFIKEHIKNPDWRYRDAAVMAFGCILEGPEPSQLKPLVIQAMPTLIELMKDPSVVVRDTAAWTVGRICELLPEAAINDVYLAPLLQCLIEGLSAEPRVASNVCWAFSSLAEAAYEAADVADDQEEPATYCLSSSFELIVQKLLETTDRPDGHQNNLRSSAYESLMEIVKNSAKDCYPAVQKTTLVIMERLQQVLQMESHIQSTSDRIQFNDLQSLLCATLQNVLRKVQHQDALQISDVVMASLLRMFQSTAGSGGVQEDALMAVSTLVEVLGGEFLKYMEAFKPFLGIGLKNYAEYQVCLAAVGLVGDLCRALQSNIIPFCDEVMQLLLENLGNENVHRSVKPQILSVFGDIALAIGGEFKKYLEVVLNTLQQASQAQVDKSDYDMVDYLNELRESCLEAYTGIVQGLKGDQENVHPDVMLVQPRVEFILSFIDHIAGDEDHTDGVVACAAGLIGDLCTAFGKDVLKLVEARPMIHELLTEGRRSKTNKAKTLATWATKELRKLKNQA
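FRET biosensor Rango (snurportin 1 IBB between N-terminal EYFP and C-terminal Cerulean), 50 nM in PBS/1 mM DTT/0.02% Tween-20/0.1% BSA, preincubated 5 min RT with compound; 0.125 microM importin beta added, 45 min RT, CFP/YFP FRET ratio read.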
The depositor's hits bear a star; ? = inconclusive; nt = no result given; [ ] = another dose, or the depositor's remark. A portion of the library, so the mix of outcomes need not match the whole.

SMILES | miR-21 reporter | Rango dissoc inh | GLA inh pH 4.5 | Rango-impB inh
CCN(CC)S(=O)(=O)c1cccc(NC(=O)COc2ccc(F)cc2Br)c1 | -5.7% | -0.6% | -8.1 | -2.8%
O=C(O)c1ccc(CNCc2cccc(Cl)c2)cc1 | -0.2% | -12.2% | 4.2 | -0.7%
O=C(Nc1ccc2oc(-c3ccccc3F)nc2c1)c1ccc2c(c1)OCCO2 | 8.6% | 2.5% | -8.0 | -4.6%
CC(C)CCn1c(=O)c2ccccc2c2ccccc2c1=O | -0.1% | 0.0% | 1.1 | -1.2%
O=C(Cn1c(C2CC2)nc2ccccc2c1=O)Nc1ccc(Br)cc1 | -16.8% | -3.6% | -4.6 | 0.0%
COc1cccc(CNS(=O)(=O)c2csc(C(N)=O)c2)c1 | 0.0% | -20.7% | nt | -2.7%
O=S(=O)(Cc1ccccc1)c1nc2ccccc2n1Cc1ccccn1 | 5.3% | 20.1% | -1.0 | 0.5%
CC1CC1C(=O)OCc1cc(=O)n2cc(Br)ccc2n1 (centres undefined) | -59.6% | 2.7% | 4.1 | 0.2%
O=C(NCCOc1ccccc1)c1cc(C(=O)NCCOc2ccccc2)cc([N+](=O)[O-])c1 | 12.0% | 4.3% | -3.6 | -2.5%
Cc1c(NC(=O)COC(=O)C2=COCCO2)cccc1[N+](=O)[O-] | nt | 0.3% | nt | 4.3%
COc1cc(CCNC(=O)c2ccccc2NC(=O)C2=C(C)OCCS2)cc(OC)c1OC | 21.4% | 21.9% | nt | -3.9%
Cc1cc(N2CCOCC2)c2c(N)c(C)cc(C)c2n1 | -0.9% | -10.6% | -5.0 | -3.2%
Cc1nc(CNS(=O)(=O)c2cccc(F)c2)cs1 | -1.8% | -7.1% | 4.6 | -6.1%
COc1cc(C2c3c(oc4ccccc4c3=O)C(=O)N2Cc2cccnc2)cc(OC)c1OC (centres undefined) | -1.3% | nt | 1.6 | nt
O=C(NCC1CCCO1)c1ccccc1-c1nc(-c2ccccc2Cl)no1 (centres undefined) | -11.0% | 0.2% | 0.4 | -1.5%
CCOc1cc(/C=N/Nc2nc(Nc3ccccc3)nc(N3CCCCC3)n2)ccc1OCC(=O)O | -0.2% | 0.3% | -11.1 | 0.6%
CC1CC(C)CN(C(=O)Cn2c(=O)n(CCCC(=O)NCc3ccco3)c(=O)c3sccc32)C1 (centres undefined) | -3.6% | 15.4% | nt | 0.9%
O=C(COc1ccc(Cl)cc1)OCC(=O)c1ccc[nH]1 | nt | 0.7% | nt | -0.1%
CC(=O)Nc1ccc(C(=O)NCC2(N3CCCCC3)CCCCC2)cc1 | -1.9% | -5.5% | nt | 0.3%
CN(C)NC(=S)Nc1ccc(S(=O)(=O)N2CCCCC2)cc1 | -6.8% | 0.2% | 1.8 | -0.3%
CCCc1nn(C)c(C(N)=O)c1[N+](=O)[O-] | 1.5% | -0.3% | -7.3 | 0.6%
C[C@@H](C(=O)Nc1cccnc1)n1c(=O)[nH]c2ccccc2c1=O | 1.1% | 2.0% | nt | -0.2%
COCCCNCCOCCOc1c(OC)cccc1OC | -17.1% | -12.6% | 6.1 | -6.0%
Cc1cc(NC(=O)c2ccccc2F)ncc1NC(=O)c1cccs1 | -48.0% | -1.6% | -4.8 | ?
COc1ccc(/C=C2/CCc3ccccc3C2=O)cc1OC | -62.1% | 11.3% | -5.1 | ?
More records:
SMILES | miR-21 reporter | Rango dissoc inh | GLA inh pH 4.5 | Rango-impB inh
Cc1cccc(OCc2nc(C#N)c(N3CC(C)CC(C)C3)o2)c1 (centres undefined) | 3.6% | -25.6% | -4.4 | -0.9%
O=C1CC(N2CCOCC2)C(=O)N1CCc1ccccc1 (centres undefined) | -7.3% | -2.7% | 4.8 | 2.3%
CC(C)(Oc1ccc(Cl)cc1)C(=O)Nc1cccnc1 | -5.4% | 3.9% | -5.6 | -2.8%
O=C(CN1C(=O)NC2(CCCCCC2)C1=O)N1CCCCC1 | nt | 10.0% | nt | 0.5%
O=C1CCC/C=C/C[C@H](CC(=O)N(CCO)Cc2ccccc2)C(=O)N[C@@H](Cc2ccccc2)CO1 | nt | 20.1% | nt | -0.4%
COc1ccc(CN2C(=O)NC3(CCCC3)C2=O)cc1F | 1.8% | -1.8% | 0.6 | 0.6%
Brc1ccccc1-c1nc(-c2ccccc2)no1 | -39.1% | nt | -2.7 | nt
CO/N=C/C(c1ncc(C(F)(F)F)cc1Cl)S(=O)(=O)c1ccccc1 (centres undefined) | -10.3% | -12.2% | nt | -1.7%
COc1ccccc1OCC(=O)NCCC1=CCCCC1 | -13.7% | -4.7% | -6.0 | 0.9%
Cc1ccc([C@@H]2[C@@H]3C(=O)N(C)C(=O)[C@@H]3[C@@H]3C(=O)Nc4ccccc4C(=O)N23)cc1 | -2.5% | 8.5% | nt | 2.8%
CCOc1ccc(-n2c(=O)[nH]c3sc4c(c3c2=O)CCCC4)cc1 | -0.4% | 19.4% | 2.5[21.1 µM] | 4.6%
Cc1cc(-c2ccc(Cl)cc2)n2ncnc2n1 | 2.8% | 11.6% | 4.3 | -0.1%
CCOc1cc2c(cc1OCC)C(c1ccccc1)N(c1ccc(C(=O)O)cc1)C(=O)C2 (centres undefined) | -16.5% | 17.4% | -5.9 | 2.6%
CCOc1ccc(C2C3=C(Nc4nc(N)[nH]c(=O)c42)c2ccccc2C3=O)cc1 (centres undefined) | -3.6% | 16.1% | -2.4 | -2.9%
C/C(=N\NC(=O)Cc1c(F)cccc1Cl)c1cccnc1 | -7.0% | 0.9% | nt | -1.3%
Cn1c(SCC(=O)c2ccc(O)c(O)c2)nnc1-c1ccccc1 | -46.1% | 0.6% | nt | -0.1%
COc1cc2c(cc1OC)-c1nnc(C)n1C(C)(C)C2 | -9.3% | 2.2% | nt | -1.0%
COc1cccc(CCC(=O)O)c1OC | -2.3% | 1.1% | -6.7 | 0.5%
CN1CCN(C(=S)c2cn(Cc3ccc(F)cc3)c3ccccc23)CC1 | -11.4% | -8.7% | -1.2 | 5.5%
O=C(Cn1cncn1)N/N=C/c1ccccc1Cl | 1.6% | 2.7% | -6.0 | -2.4%
COc1cc(/C=N/NC(=O)c2cn(-c3cccc(C)n3)cn2)ccc1O | 0.5% | -10.9% | -14.5 | 0.8%
Cc1nn(-c2ccccc2)c(C)c1C(=O)OCC(=O)Nc1ccc2c(c1)OCO2 | -10.1% | 7.6% | 5.4 | -7.1%
N#C/C(=C/c1cn(CC(=O)O)c2ccccc12)c1ccc(F)cc1 | 1.7% | ? | -1.4 | ?
CCOC(=O)[C@@H]1[C@H]2COc3cc(OC)ccc3[C@@H]2N2C(=O)N(c3cccc(Cl)c3)C(=O)[C@@]12C | 4.8% | -0.6% | nt | -1.5%
CCN(C(=O)COC(=O)c1cc(-c2ccccc2)nc2c1c(C)nn2-c1ccc(C)cc1)C1CCS(=O)(=O)C1 (centres undefined) | 1.0% | -5.2% | -8.1 | -3.9%

For reference, some entries already given.
SMILES | miR-21 reporter | Rango dissoc inh | GLA inh pH 4.5 | Rango-impB inh
CCOc1cc2c(cc1OCC)C(c1ccccc1)N(c1ccc(C(=O)O)cc1)C(=O)C2 (centres undefined) | -16.5% | 17.4% | -5.9 | 2.6%
CCOc1ccc(C2C3=C(Nc4nc(N)[nH]c(=O)c42)c2ccccc2C3=O)cc1 (centres undefined) | -3.6% | 16.1% | -2.4 | -2.9%
C/C(=N\NC(=O)Cc1c(F)cccc1Cl)c1cccnc1 | -7.0% | 0.9% | nt | -1.3%
Cn1c(SCC(=O)c2ccc(O)c(O)c2)nnc1-c1ccccc1 | -46.1% | 0.6% | nt | -0.1%
COc1cc2c(cc1OC)-c1nnc(C)n1C(C)(C)C2 | -9.3% | 2.2% | nt | -1.0%
COc1cccc(CCC(=O)O)c1OC | -2.3% | 1.1% | -6.7 | 0.5%
CN1CCN(C(=S)c2cn(Cc3ccc(F)cc3)c3ccccc23)CC1 | -11.4% | -8.7% | -1.2 | 5.5%
O=C(Cn1cncn1)N/N=C/c1ccccc1Cl | 1.6% | 2.7% | -6.0 | -2.4%
COc1cc(/C=N/NC(=O)c2cn(-c3cccc(C)n3)cn2)ccc1O | 0.5% | -10.9% | -14.5 | 0.8%
Cc1nn(-c2ccccc2)c(C)c1C(=O)OCC(=O)Nc1ccc2c(c1)OCO2 | -10.1% | 7.6% | 5.4 | -7.1%
N#C/C(=C/c1cn(CC(=O)O)c2ccccc12)c1ccc(F)cc1 | 1.7% | ? | -1.4 | ?
CCOC(=O)[C@@H]1[C@H]2COc3cc(OC)ccc3[C@@H]2N2C(=O)N(c3cccc(Cl)c3)C(=O)[C@@]12C | 4.8% | -0.6% | nt | -1.5%
CCN(C(=O)COC(=O)c1cc(-c2ccccc2)nc2c1c(C)nn2-c1ccc(C)cc1)C1CCS(=O)(=O)C1 (centres undefined) | 1.0% | -5.2% | -8.1 | -3.9%

The listing continues:
SMILES | miR-21 reporter | Rango dissoc inh | GLA inh pH 4.5 | Rango-impB inh
CCCCN(C(=O)c1ccc(C)o1)c1c(N)n(CC(C)C)c(=O)[nH]c1=O | nt | 1.3% | nt | 1.9%
O=C(O)c1cccc(N2C(=O)c3cc4cccc(Br)c4cc3C2=O)c1 | 0.6% | 11.5% | nt | 4.8%
O=C(CSc1nc2c(c(=O)n1-c1ccc(Cl)cc1)SCC2)Nc1nccs1 | 0.2% | 4.6% | -2.1 | 6.6%
COc1ccc(-c2nnc(SCC(=O)NCc3cccs3)n2C)cc1 | -6.7% | 22.8% | 5.8 | 7.9%
COCCCC1CCN(C(=O)C2CCC(=O)N(Cc3cccc(F)c3)C2)CC1 (centres undefined) | 1.8% | -13.4% | nt | 3.4%
CC(=O)c1cccc(NC(=O)/C(=C/c2ccncc2)NC(=O)c2ccccc2)c1 | 6.2% | 15.0% | nt | -1.3%
CCOCCN(C=O)c1cccc(OC)c1 | 0.2% | -19.1% | 2.7 | 4.8%
Cc1sc2nc(CN(C(=O)NC3CCCCC3)C3CCCCC3)[nH]c(=O)c2c1C | -6.5% | 1.5% | -8.3 | 0.7%
CNC(=S)N1N=C(c2ccc(C)cc2)CC1c1ccc(Br)cc1 (centres undefined) | -7.0% | 10.8% | -0.2 | 6.2%
CCCN(CC(=O)Nc1ccccc1C)C(=O)C1CCN(S(=O)(=O)c2cccc(C(F)(F)F)c2)CC1 | nt | -6.0% | nt | -1.6%
Cc1sc2c(c1C)C(O)=C(C(=O)Nc1ccccc1)S(=O)(=O)N2C | 7.2% | 56.0% | -7.7 | -1.1%
O=C(CSc1nnnn1-c1ccc2c(c1)CCC2)Nc1ccc2c(c1)OCCO2 | -24.4% | -4.2% | 2.6 | 0.0%
N/C(=N\c1nc2c(c(=O)[nH]1)CCC2)Nc1cccc2ccccc12 | -2.9% | 0.1% | 12.6 | -1.8%
NC(=O)CSCc1ccc(Br)cc1 | -7.0% | 2.3% | -3.3 | 1.7%
Cc1cc(S(=O)(=O)Nc2ccc(C(=O)NCC3(N4CCCCC4)CCCCC3)cc2)ccc1F | nt | 11.8% | nt | -3.0%
CNC(=S)N(CCc1c(C)[nH]c2ccc(C)cc12)Cc1ccco1 | 4.8% | 0.1% | -10.2 | -1.1%
CCOc1ccc(-c2c(C(=O)N/N=C/c3ccc(OC(C)C)cc3)nnn2-c2nonc2N)cc1 | -9.2% | 11.3% | 11.5 | 0.2%
CCc1cc(=O)oc2c3c(cc(OCC(=O)NC4CC4)c12)OC(C)(C)CC3 | -12.0% | -2.8% | nt | 0.5%
N#Cc1ccc(-c2cccnc2)nc1SCC(=O)c1ccccc1 | -78.3% | ? | 0.4 | ?
O=S(=O)(c1ccc(Br)cc1)N1CCN(c2cc(-c3ccccc3)nc3ncnn23)CC1 | -2.0% | 8.1% | 3.9 | 0.5%
CCn1c(=O)cc(SCC(=O)N2CCN(C3CCCCC3)CC2)c2ccccc21 | 1.9% | -2.5% | 3.6 | -3.5%
COc1ccc(Br)cc1C1CC(=O)C(C)C(c2cc(Br)ccc2OC)N1 (centres undefined) | -2.6% | 2.0% | nt | 3.6%
O=C(CCc1nnc2ccc(NCc3ccco3)nn12)N1CCCCC1 | -6.5% | -5.1% | nt | 0.2%
